# Source: PubChem BioAssay (National Center for Advancing Translational Sciences (NCATS))
# AmpC nodet inh – blocks E. coli AmpC beta-lactamase in absence of detergent | AmpC nitrocefin hydrolysis, absorbance 480 nm, no detergent; potencies from a single point are estimates | 71,000 compounds, 1.8% hits | P00811 | AID 585 | Potency, µM (top dose mostly 28.7 µM), without a hit: at the top dose activity change, negative = inhibition; active = falling curve, for most hits resting on a single point; inconclusive = weak or doubtful change; inactive = flat or rising curve; also: % of control where 0% means no effect; about half of the hits show no inhibition at the top dose; a quarter of the inactives give rising signals
# Target sequence (P00811 whole entry, looked up): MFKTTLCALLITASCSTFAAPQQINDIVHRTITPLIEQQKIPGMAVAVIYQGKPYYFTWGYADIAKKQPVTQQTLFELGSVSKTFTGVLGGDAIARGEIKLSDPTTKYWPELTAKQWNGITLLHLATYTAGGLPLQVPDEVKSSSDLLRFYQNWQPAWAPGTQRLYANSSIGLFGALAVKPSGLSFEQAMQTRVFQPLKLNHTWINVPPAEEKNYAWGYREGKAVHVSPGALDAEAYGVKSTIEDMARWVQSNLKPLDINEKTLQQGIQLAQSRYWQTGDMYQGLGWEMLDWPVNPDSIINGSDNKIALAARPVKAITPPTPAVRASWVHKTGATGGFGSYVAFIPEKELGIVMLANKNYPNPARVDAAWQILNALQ
#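 AmpC in 20 mM phosphate buffer pH 7.0 was preincubated 15 min at room temperature with compounds. Nitrocefin (800 uM stock) was then added and hydrolysis followed at 480 nm every 20 s for 4 min.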
# Numbers without * were called inactive; [ ] = remark or other dose. Potency is read from the fitted curve at half-maximal effect. This is a subset, so the mix of outcomes need not match the whole.
Structure | AmpC nodet inh
COc1cccc(N=C2SC(C(=O)Nc3ccc(F)cc3)CC(=O)N2C)c1 (centres undefined) | 41%
COCCOC(=O)c1c(C)oc2ccc(OC(=O)c3cccs3)cc12 | 67%
COC(=O)Nc1ccc(S(=O)(=O)N(CCO)CC(F)(F)C(F)F)cc1 | -3%
Cc1cc(O)c(NC(=O)c2ccc(Br)o2)cc1C | -16%
Cn1c(=O)c2c(nc(NCc3ccccc3)n2C)n(C)c1=O | -18%
N#CCc1ccccc1 | -13%
CCOC(=O)C1=C(C)NC(=O)C(C#N)C1c1ccco1 (centres undefined) | -6%
Nc1ccc(N=Nc2ccc(-c3ccc(O)cc3)cc2)c2ccc(S(=O)(=O)O)cc12 | -10%[5.75 µM]
CCOc1ccc(NC(=O)C2CC(=O)N3CCCN=C3S2)cc1 (centres undefined) | -6%
CCC(=O)Nc1c(OC(=O)CC)ccc2c(C)cc(=O)oc12 | -4%
CCCCCCOc1ccc(CN2CCN(C)CC2)cc1 | 60%
CC1(C)CC(=O)C(CC2=C(O)CC(C)(C)CC2=O)C(=O)C1 | -4%
O=S(=O)(c1ccc(N2CCCC2c2nc3ccccc3s2)nc1)N1CCOCC1 (centres undefined) | 118%
CCc1ccccc1Nc1ccc(C(=O)O)cc1N | 6%
O=C(O)CNC(=O)c1ccc2c(c1)OCCO2 | -2%
Cc1ccc(S(=O)(=O)n2nc(C)c(Br)c2C)c(C)c1C | -8%
COC(=O)c1cccc(N2C(=O)c3cccnc3C2=O)c1 | 4%
CCN1CCn2c1nc(N1CCOCC1)nc2=O | 0%
CC(C)(Cl)[N+](=O)[O-] | -4%
O=C(CC1NCCNC1=O)Nc1ccc(Oc2ccccc2)cc1 (centres undefined) | 18%
C/C(=N/S(=O)(=O)c1ccc(Cl)c(Cl)c1)OCC(C)(C)C | 1%[5.75 µM]
COc1cccc(S(=O)(=O)NCc2ccc(C(=O)NCC3CCCO3)cc2)c1 (centres undefined) | 1%
COc1ccc(OC)c(NC(=O)CSCc2cnn(-c3ccccc3)c2-n2cccc2)c1 | 24%
Cc1cccc(-c2nc(CS(=O)CC(=O)N3CCN(C)CC3)c(C)o2)c1 (centres undefined) | 4µM*[single pt active]
O=C(CSc1nnc(-c2cnccn2)n1Cc1ccco1)c1ccccc1 | -6%
CC12CN3CC(C)(CN(C1)C3c1ccccc1Cl)C2O (centres undefined) | -6%
Cc1ccc(-n2cc(-c3ccccc3)[nH]c2=O)cc1F | -5%
O=c1[nH]c(=O)n(Cc2ccccc2)c2c1CCC2 | -11%
CCN1C(=O)CC(N2CCN(c3ccc(C(=O)c4ccccc4)cc3)CC2)C1=O (centres undefined) | 123%
CCc1c(C(=O)NCCc2ccc(OC)c(OC)c2)[nH]c(C)c1C(C)=O | -9%
COC(=O)c1ccc(C(NC(=O)OCc2ccccc2)/C(=C/[C@@H](C)C(=O)N[C@@H](CO)Cc2ccccc2)c2cccnc2)cc1 (some centres undefined) | 141%
CCOC(=O)C(Sc1ncn[nH]1)c1ccccc1 (centres undefined) | -2%
COc1ccc(-c2cc3c(=O)n(CC(=O)NC4CCN(Cc5ccccc5)CC4)ncn3n2)cc1 | -6%
CC1(C)N=C(c2cccc(F)c2)C(=O)N1 | -1%
O=c1oc2cc(OCc3nn[nH]n3)ccc2c2c1CCCC2 | -14%
Cn1c(=O)c2[nH]c(NCC3CCCO3)nc2n(-c2ccccc2)c1=O (centres undefined) | -10%
CCCn1c(=S)[nH]c2cc(C(=O)N3CCN(c4ccccc4OC)CC3)ccc2c1=O | 53%
CC1CCCN(C(=O)Nc2cccc(NC(=O)N3CCCC(C)C3C)c2)C1C (centres undefined) | 15%
COc1ccc(S(=O)(=O)N2CCCC2C(=O)Nc2ccc(O)cc2)cc1 (centres undefined) | 0%
CCOc1ccc(C(=O)NC2CCN(S(C)(=O)=O)CC2)cc1 | -6%
Clc1ccc(-n2cnnn2)cc1 | 0%
O=C(CSc1nnc([C@@H]2CCCN2)o1)c1ccc(Cl)cc1 | -4%
CCN1CCN(Cc2cc(Br)cc(OC)c2O)CC1 | -3%
c1cncc(CNc2ncnc3ccc(-c4ccoc4)cc23)c1 | 16%
COC(=O)c1cc(NC(=O)c2ccc(Cn3cc(Cl)cn3)o2)cc(C(=O)OC)c1 | 32%
COc1ccccc1N(C(=O)c1snc(C(N)=O)c1N)C(C(=O)NCCC(C)C)c1ccco1 (centres undefined) | 50%
O=C1CC(c2ccc3c(c2)OCO3)c2cc3c(cc2N1)OCO3 (centres undefined) | -10%
COC(=O)c1ccccc1NC(=O)Cn1c(SC)c(F)cnc1=O | 2%
Cc1c(Br)cc(C(=O)OC2CCN(C)CC2)c(C)c1C | 39%
COC(=O)CN1C(=O)C(O)(CC(=O)c2cccc(Br)c2)c2ccccc21 (centres undefined) | 53%
COc1cccc(-c2nc(CS(=O)(=O)CC(=O)N3CCN(c4ccccn4)CC3)c(C)o2)c1 | 101%
Cc1noc(/C=C/N(C)C)c1S(=O)(=O)N1CCc2ccccc21 | 4µM*[single pt active]
C=CCn1c(SCC(=O)NC2CCCC2)nc2scc(-c3ccco3)c2c1=O | 40%
O=C(NCCN1CCCC1)c1cc(-c2ccncc2)nc2ccc(S(=O)(=O)N3CCOCC3)cc12 | 40%
O=C(O)CCN1C(=S)CSC1=S | 4%[5.75 µM]
C=CCN1C(=O)CSc2ccc(C(=O)OCC)cc21 | 12%
C/C(=N\NC(=O)c1ccncc1)c1ccc2ccccc2c1O | 11%[5.75 µM]
Cn1c(=O)c2nnn(/N=C(\c3ccccc3)C3CC3)c2n(C)c1=O | 4%
CS(=O)(=O)N1CCN(c2ccccc2NC(=O)Cc2ccccc2)CC1 | 22%
O[C@H]1C2CCC1C(N1CCCCC1)CC2 (some centres undefined) | 9%

# The listing continues:
SMILES	AmpC nodet inh
CCC(C)[C@H](NC(=O)NCc1ccccc1)C(=O)O (some centres undefined)	0%
CC(OC(=O)C1CC=CCC1C(N)=O)C(Cl)=C(Cl)Cl (centres undefined)	6%
CCCCOc1ccc(N2C(=O)CC(N(O)c3ccccc3)C2=O)cc1 (centres undefined)	14%
O=C(c1ccccc1)n1ccc2ccccc21	0%
O=C(Cn1c(=O)sc2ccccc21)NCc1ccco1	-6%
CCN1C(=O)c2cccc3c(NC(=O)C(C)(C)C)ccc1c23	6%
CCCC(=O)Nc1cc(-c2cn3cccnc3n2)ccc1OC	13%
O=C(COC(=O)CSCC(=O)N1CCCCC1)Nc1ccc(Cl)cc1	33%
Nc1nc2n[nH]nc2c(=O)[nH]1	-3%[12.8 µM]
CC(c1ccccc1)C1CC(=O)N(CC(=O)O)C1=O (centres undefined)	-1%
O=C1CC(c2ccc(S(=O)(=O)N3CCN(c4ccccc4)CC3)cc2)CN1 (centres undefined)	27%
COc1ccc(CCN(C)CCN2C(=O)c3ccccc3C2=O)cc1OC	10%
O=C1C=C(N(CCO)CCO)C2(CCCCC2)O1	-5%
COc1cccc(Nc2ncc3nc(C)c(=O)n(C[C@H]4CCCO4)c3n2)c1	43%
S=C1NC=NC2N=CNC12 (centres undefined)	-14%
Cc1ccc(S(=O)(=O)n2nc(-c3ccc(Cl)cc3)nc2NCc2ccco2)cc1	0%
Cc1cc(C(=O)Nc2nc3ccc(S(C)(=O)=O)cc3s2)c(C)o1	26%
CCOc1ccc(-n2c(SC(C)C(=O)OC)nc3c(c2=O)SCC3)cc1 (centres undefined)	47%
CC1CCc2sc3nc(N4CCN(CCO)CC4)n4ncnc4c3c2C1 (centres undefined)	110%
Cc1nc2cncnc2n(C2CC2)c1=O	47%
CCCN1CCC2(CC1)NC(CO)(CO)CO2	-2%
CC(=O)N1CCC2(CC1)CN(Cc1ccccc1)C2	-10%
CCOC(=O)C1CCCN(Cc2nc(N)nc(Nc3ccccc3OC)n2)C1 (centres undefined)	55%
CC(=O)[C@@]1(O)CC[C@@H]2[C@@H]3CCC4=CC(=O)CC[C@@]4(C)[C@H]3CC[C@]21C	25%
CCOC(=O)Cc1csc(SCC(=O)/C(C#N)=C(\C)N)n1	-4%
O=C(O)C1C2C=CC3(CN(Cc4ccccn4)C(=O)C13)O2 (centres undefined)	0%
COc1ccc(OCCC(=O)NCc2ccccc2)cc1	21%
O=C1CC(c2ccccc2)CN1S(=O)(=O)c1ccccc1 (centres undefined)	-10%
COCCNC(=O)c1c(N)n(CCCn2ccnc2)c2nc3ccccc3nc12	10%
O=C(Cn1ncc2c(=O)oc3ccccc3c21)NCCC1=CCCCC1	-4%
NC(=O)c1ncn([C@@H]2O[C@@H](CO)[C@@H](O)[C@H]2O)n1	8%
CCOc1cc(-c2noc(CCCC(N)=O)n2)cc(Br)c1OC	69%
CC1CCCCN1C(=O)CSc1nnc(-c2ccco2)n1CC1CCCO1 (centres undefined)	11%
CS(=O)(=O)N1CCN(c2ccccc2NC(=O)c2ccc(Cl)cc2)CC1	112%
Cc1cc(C)nc(SCc2nnc(SCC(=O)Nc3ccccc3C)n2Cc2ccco2)n1	66%
COc1cccc(C2C=C(c3cccs3)Nc3ncnn32)c1OC (centres undefined)	14%
CCOC(=O)c1c(C)oc2ccc(O)c(CN(C)C)c12	6%
CCCC(=O)c1ccc(N2CCN(C(=O)c3ccccc3)CC2)c(F)c1	60%
Cc1cccc(OCC(O)Cn2c(NCc3cccnc3)nc3c2c(=O)[nH]c(=O)n3C)c1 (centres undefined)	32%
CC1(C)CC(=O)C(/C=N/n2cnc3ccccc3c2=O)=C(O)C1	-8%
COc1ccc(S(=O)(=O)N(C)C2CCS(=O)(=O)C2)cc1OC (centres undefined)	11%
COCC(C)n1c(C)cc(C(=O)COC(=O)c2ccc3ncsc3c2)c1C (centres undefined)	83%
O=C(CCS(=O)(=O)c1cccc2nsnc12)N1CCN(C(=O)c2ccco2)CC1	3%
Cc1ccccc1C(=O)N1CCC(C(=O)Nc2ccc(S(=O)(=O)N3CCCC3)cc2)CC1	82%
Cc1cc2cc3c(cc2nc1SCC(=O)N1CCN(C(=O)c2ccco2)CC1)OCO3	94%
Cn1c(=O)oc2cc(S(=O)(=O)NCCC(=O)Nc3ccc4c(c3)OCCO4)ccc21	-16%
COc1cc2c(O)c3c(c(-c4ccc5c(c4)OCO5)c2cc1OC)C(=O)OC3	6%
CN(C)S(=O)(=O)Nc1ccc(Br)cc1F	1%
COc1ccccc1CNc1cc(-c2cccc(NS(C)(=O)=O)c2)ncn1	22%
Cc1ccc(SCc2cc(=O)[nH]c(N3CCOCC3)n2)cc1	11%
Cn1c(=O)n(CC(=O)O)c(=O)c2c1nc1n2CCS1	1%
Cc1ccc2nc(SCCC#N)nc(C)c2c1	-2%
c1ccc(CN2CCN(CCN3CCn4c3nc3ccccc34)CC2)cc1	38%
COc1c(C)cccc1C(=O)Nc1ccc(CN2CCOCC2)cc1	35%
CCCCCn1c(SCCCC)nc2c1c(=O)[nH]c(=O)n2C	17%
C=CCn1c(SCn2nnc3ccccc3c2=O)nnc1-c1ccc(Br)cc1	37%
CC1(C)CC(NC(=O)CCc2ccccc2)CC(C)(C)N1	-14%
COc1cc2nc(-c3ccc(Br)o3)oc(=O)c2cc1OC	28%
COc1ccc(C)cc1NC(=O)CSc1nnnn1Cc1ccccc1	12%
N[C@H](Cc1cccc(-c2ccccc2CP(=O)(O)O)c1)C(=O)O	4%

# (continued)
SMILES	AmpC nodet inh
CCCC(=O)C1C(=O)CC(C)(C)C(c2cc(C)no2)C1=O (centres undefined)	5%
CCCCN(CC)Cc1ccc(CNC(=O)Nc2ccc(OC)cc2OC)o1	-3%
CCCCCOC(=O)c1ccccc1C(=O)O	12%
COC(=O)c1ccccc1NC(=O)COc1ccccc1	13%
COc1ccc(CC(=O)N2CCN(c3ccccn3)CC2)cc1	79%
CCn1c(=O)cc(OCC(=O)N2CCN(c3cccc(C(F)(F)F)c3)CC2)c2ccccc21	148%
CCN(CC)CCO[C@H]1CC[C@@]2(C)C(=CC[C@@H]3[C@H]2CC[C@]2(C)C(=O)CC[C@H]32)C1	44%
O=S(=O)(c1ccccc1)N1CCC2(CC1)CN(Cc1ccccc1)C2	35%
O=C(CCCc1nc(-c2ccccc2Cl)no1)NCc1cccnc1	17%
CC(C)C(C(=O)Nc1nccs1)c1ccccc1 (centres undefined)	-6%
CCn1c(=N)n(CC(=O)c2cccc(OC)c2)c2ccccc21	12%

# In the list so far, these contain two or more sulfur atoms.
SMILES	AmpC nodet inh
O=S(=O)(c1ccc(N2CCCC2c2nc3ccccc3s2)nc1)N1CCOCC1 (centres undefined)	118%
C=CCn1c(SCC(=O)NC2CCCC2)nc2scc(-c3ccco3)c2c1=O	40%
O=C(O)CCN1C(=S)CSC1=S	4%[5.75 µM]
Cc1cc(C(=O)Nc2nc3ccc(S(C)(=O)=O)cc3s2)c(C)o1	26%
CCOc1ccc(-n2c(SC(C)C(=O)OC)nc3c(c2=O)SCC3)cc1 (centres undefined)	47%
CCOC(=O)Cc1csc(SCC(=O)/C(C#N)=C(\C)N)n1	-4%
Cc1cc(C)nc(SCc2nnc(SCC(=O)Nc3ccccc3C)n2Cc2ccco2)n1	66%
COc1ccc(S(=O)(=O)N(C)C2CCS(=O)(=O)C2)cc1OC (centres undefined)	11%
O=C(CCS(=O)(=O)c1cccc2nsnc12)N1CCN(C(=O)c2ccco2)CC1	3%

# 5 entries already listed, sorted by molar mass, low to high.
SMILES	AmpC nodet inh
CCCC(=O)C1C(=O)CC(C)(C)C(c2cc(C)no2)C1=O (centres undefined)	5%
O=S(=O)(c1ccccc1)N1CCC2(CC1)CN(Cc1ccccc1)C2	35%
O=C(CCCc1nc(-c2ccccc2Cl)no1)NCc1cccnc1	17%
CCCCN(CC)Cc1ccc(CNC(=O)Nc2ccc(OC)cc2OC)o1	-3%
CCn1c(=O)cc(OCC(=O)N2CCN(c3cccc(C(F)(F)F)c3)CC2)c2ccccc21	148%
